Mtb growth: Mycobacterium tuberculosis H37Rv growth inhibition, putative kinase inhibitor library, confirmatory dose response (AID 2842); inhibition, % at 10 µg/mL, or IC90 in µg/mL where a hit was titrated; 24,000 compounds, 5.2% hits; M. tuberculosis H37Rv growth inhibition; higher % means a stronger effect; some inactives read as strong as hits;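 active = confirmed in a dose series; about a fifth of its hits are not listed in these tables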;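 also: bacteria incubated one week before Alamar blue readout; 0% = bacteria only wells and 100% = bacteria with high antibiotic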
Numbers without * were called inactive. Some of the compounds tested. The share of hits here may be higher or lower than overall.

cpd | smiles | Mtb growth
1 | Nc1nc(SCC(=O)NCc2ccccc2)[nH]c(=O)c1NC(=O)c1cccs1 | 45.5%
2 | O=C(CSc1nnc2ccc(-c3ccncc3)nn12)NCc1ccc(F)cc1 | -0.1%
3 | COC(=O)C1=C(C)NC(=O)NC1c1ccc(O)c(OC)c1 (stereo not drawn) | -10.0%
4 | Cc1c(Cc2ccc3c(c2)OCO3)sc(NC(=O)c2cc(Cl)ccc2Cl)c1C#N | 45.7%
5 | COc1ccc(C(c2sc3nc(C)nn3c2O)N2CCC(O)CC2)cc1 (stereo not drawn) | -2.1%
6 | CCOc1ccc(NC(=O)c2oc3ccccc3c2NC(=O)c2c(F)cccc2Cl)cc1 | 14.1%
7 | CCOC(=O)CSc1nnc(CNC(=O)c2ccc([N+](=O)[O-])cc2)n1-c1ccccc1 | -17.0%
8 | CC(C)CCn1c(N2CCN(Cc3c(F)cccc3Cl)CC2)nc2c1c(=O)[nH]c(=O)n2C | 6.0%
9 | COc1ccc(NC(=O)c2cnc(SCc3ccccn3)n(C)c2=O)cc1 | -4.4%
10 | CCOC(=O)c1nn(-c2ccc(C)cc2)c(=O)c2c(NC(=O)/C=C/c3ccc(OC)c(OC)c3)scc12 | -3.3%
11 | COc1cc2nc(NC(=O)c3ccc([N+](=O)[O-])cc3)sc2cc1OC | 10.8%
12 | Cc1cc(C)cc(N2C(=O)CSC23C(=O)N(CC(=O)NCc2ccco2)c2ccccc23)c1 (stereo not drawn) | 5.5%
13 | CC(=O)c1ccc(NC(=O)CSc2ccc3nnc(-c4cccc(F)c4)n3n2)cc1 | 2.8%
14 | COc1ccccc1NC(=O)c1oc2ccccc2c1NC(=O)c1cc(Cl)ccc1OC | -1.6%
15 | Cc1cc(OC(=O)c2cccc(C(F)(F)F)c2)c([N+](=O)[O-])c(=O)[nH]1 | 8.0%
16 | O=C(CSc1nc2[nH]ncc2c(=O)[nH]1)NCc1ccco1 | -0.8%
17 | CCOC(=O)c1nn(-c2cccc(F)c2)c(=O)c2c(NC(=O)c3cccc(OC)c3)scc12 | 0.6%
18 | O=C(CSc1ccc2nnc(-c3ccc(F)cc3)n2n1)Nc1ccc(Cl)cc1 | 7.8%
19 | Cc1ccc(O)c(C2=NNC(c3cc(Br)ccc3O)C2)c1 (stereo not drawn) | 66.5%
20 | O=C(NCc1ccccc1Cl)NC1CC(=O)N(c2ccc3c(c2)OCCO3)C1 (stereo not drawn) | 5.4%
21 | Cc1cc(=O)n2c3ccccc3n(CC(O)CNc3ccc(C(C)C)cc3)c2c1C#N (stereo not drawn) | 24.1%
22 | COc1ccc(C(=O)Nc2nc(-c3nc4ccccc4s3)cs2)c(OC)c1 | 12.3%
23 | O=C(O)CC(C(=O)O)N1C(=O)/C(=C\c2ccc(-c3nc4ccccc4s3)o2)SC1=S (stereo not drawn) | -24.3%
24 | CCOC(=O)c1c(C)oc2c1c(C=NCc1ccccn1)c(O)c1ccccc12 | 6.1%
25 | O=C(Nc1nnc(-c2ccc(F)cc2)s1)c1cc(Cl)ccc1Cl | 12.0%
26 | Cc1c(/C(O)=C2\C(=O)C(=O)N(CCN(C)C)C2c2ccc(F)cc2)cnn1-c1ccccc1 (stereo not drawn) | -14.1%
27 | O=C1Nc2ccc(S(=O)(=O)Nc3ccc(N=Nc4ccccc4)cc3)c3cccc1c23 | -3.6%
28 | O=C(CSc1nnc2ccc(-c3ccncc3)nn12)NCc1ccco1 | 0.5%
29 | Cc1ccc(N2C(=O)CC(Sc3ncccc3C(=O)O)C2=O)cc1Cl (stereo not drawn) | -5.5%
30 | Cc1cc(NC(=O)CSc2ccc3nnc(-c4cccnc4)n3n2)no1 | 7.6%
31 | CCSc1ccc(CC(=O)Nc2nnc(-c3ccco3)o2)cc1 | -1.7%
32 | CC1CCN(C(=O)CSc2ccc3nnc(-c4ccc(Cl)cc4)n3n2)CC1 | -5.1%
33 | CCc1nc(SCc2ccccc2)n[nH]1 | 7.9%
34 | Cc1ccc(NC(=O)CSc2nncc(=O)n2N)cc1 | -4.9%
35 | Cc1ccccc1NC(=O)CSc1nnc2ccc(-c3cccnc3)nn12 | -1.4%
36 | COc1ccc(OCC(=O)Nc2c(C(=O)Nc3ccccc3)oc3ccccc23)cc1 | 6.5%
37 | COCCn1c(N)c(S(=O)(=O)c2cccc(C)c2)c2nc3ccccc3nc21 | -2.3%
38 | Cc1nnc(SCCn2c(N3CCOCC3)nc3c2c(=O)n(C)c(=O)n3C)s1 | 0.3%
39 | Cc1ccc(-n2ncc3c(NNC(=O)c4ccc(Cl)c(Cl)c4)ncnc32)cc1C | 25.0%
40 | O=C(CCc1ccccc1)Nc1nnc(-c2ccccc2)s1 | 0.8%
41 | Nc1nc(SCC(=O)Nc2ccc3c(c2)OCO3)[nH]c(=O)c1NC(=O)c1ccccc1F | -3.9%
42 | Cc1ccc(S(=O)(=O)n2nc(OC(=O)c3ccccc3F)cc2N)cc1 | 1.0%
43 | CCC(=O)Nc1c(C(=O)Nc2cccc(Cl)c2)oc2ccccc12 | 9.6%
44 | CCOc1ccc(N/C=C(/C#N)c2nc(-c3cccc(OC)c3)cs2)cc1 | -2.3%
45 | Cc1cccc(/C=C2\SC(=Nc3ccc(O)cc3)NC2=O)c1 | 0.9%
46 | COc1ccc(OC)c2[nH]c(=O)c(CCNC(=O)c3ccc(C)cc3)cc12 | 16.0%
47 | CCc1cc2c(=O)n(-c3ccc(Cl)cc3)c(SCC(=O)c3cccs3)nc2s1 | -9.3%
48 | COc1ccc(Nc2nc(N3CCOCC3)nc3nccnc23)cc1 | 1.7%
49 | CC(=O)Nc1ccc(NCC(O)Cn2c3ccccc3n3c(=O)cc(C)c(C#N)c23)cc1 (stereo not drawn) | -1.6%
50 | COC(=O)c1ccccc1NC(=O)CSc1nnc(CCC(=O)O)c(=O)n1N | -26.0%
51 | Cc1ccc(NC(=O)CSc2nc(N)c(NC(=O)c3ccco3)c(=O)[nH]2)c(C)c1 | -18.4%
52 | CCCCCn1c(SCCCO)nc2c1c(=O)[nH]c(=O)n2C | 10.3%
53 | Cc1ccc(-n2ncc3c(NNC(=O)c4cccc(O)c4)ncnc32)cc1 | 18.5%
54 | CCOC(=O)c1oc2ccccc2c1NC(=O)c1ccccc1C | 7.9%
55 | COC(=O)c1ccc(N2C(=O)/C(=C\c3ccncc3)SC2=S)cc1 | -6.9%
56 | CC(=O)N1CCc2c(sc(NC(=O)c3cc4ccccc4oc3=O)c2C(N)=O)C1 | -4.8%
57 | O=c1nc(SCc2cccc3ccccc23)c2c(n1CCCO)CCCC2 | 4.8%
58 | CCOC(=O)C1CCN(C(c2ccc(F)cc2)c2sc3ncnn3c2O)CC1 (stereo not drawn) | 4.8%
59 | COC(=O)C1CCN(C(c2ccccc2Cl)c2sc3nc(C)nn3c2O)CC1 (stereo not drawn) | 3.5%
60 | O=C(Nc1nc(-c2ccc(Cl)c(Cl)c2)cs1)c1ccc2c(c1)OCCO2 | -7.3%

A section of the results above, for reference:
cpd | smiles | Mtb growth
55 | COC(=O)c1ccc(N2C(=O)/C(=C\c3ccncc3)SC2=S)cc1 | -6.9%
56 | CC(=O)N1CCc2c(sc(NC(=O)c3cc4ccccc4oc3=O)c2C(N)=O)C1 | -4.8%
57 | O=c1nc(SCc2cccc3ccccc23)c2c(n1CCCO)CCCC2 | 4.8%
58 | CCOC(=O)C1CCN(C(c2ccc(F)cc2)c2sc3ncnn3c2O)CC1 (stereo not drawn) | 4.8%
59 | COC(=O)C1CCN(C(c2ccccc2Cl)c2sc3nc(C)nn3c2O)CC1 (stereo not drawn) | 3.5%
60 | O=C(Nc1nc(-c2ccc(Cl)c(Cl)c2)cs1)c1ccc2c(c1)OCCO2 | -7.3%

The list goes on:
cpd | smiles | Mtb growth
61 | O=C(Nc1cccc(-c2ccc3nnc(-c4ccncc4)n3n2)c1)c1ccc(F)cc1F | -9.6%
62 | CC1=C(C(=O)Nc2ccc(F)c(F)c2)C(c2ccc(C(C)C)cc2)NC(=O)N1 (stereo not drawn) | 19.2%
63 | CSC1=Nc2cccnc2Nc2ccccc21 | 24.5%
64 | CCC(=O)NNc1nc2c(F)cc(F)cc2s1 | -2.9%
65 | Cc1ccc(-n2ncc3c(NNC(=O)C4CCCCC4)ncnc32)c(C)c1 | 5.2%
66 | O=C(Nc1ccccc1)c1oc2ccccc2c1NC(=O)C1CCCC1 | -0.3%
67 | COc1ccccc1-c1nnc(Nc2nc3cc4c(cc3s2)OCO4)o1 | -0.8%
68 | CCOC(=O)c1nn(-c2ccccc2)c(=O)c2c(NC(=O)CCc3ccccc3)scc12 | 8.4%
69 | Cc1cc(SCC(=O)Nc2c(C)n(C)n(-c3ccccc3)c2=O)n2c(nc3ccccc32)c1C#N | -3.1%
70 | Cc1ccc(-n2nnc3c(=O)n(CC(=O)Nc4cccc(F)c4)cnc32)cc1Cl | 5.5%
71 | C=CCNC(=O)C(=O)Nc1ccc2c(c1)N(S(=O)(=O)c1cccs1)CCC2 | -4.0%
72 | COc1ccc(Cn2cc(S(=O)(=O)c3ccc(F)cc3)c(=O)c3cc(F)ccc32)cc1 | 6.8%
73 | Cc1ccc(OCCCC(=O)Nc2sc3c(c2C(N)=O)CCC(C)C3)c(C)c1 (stereo not drawn) | -7.9%
74 | CN(C)c1ccc(C(=O)Nc2nc3ccc(S(C)(=O)=O)cc3s2)cc1 | 12.9%
75 | O=C(Nc1ccc2c(c1)OCCO2)c1oc2ccccc2c1NC(=O)c1c(F)cccc1F | 6.6%
76 | COc1ccc(-c2nnc3c4cc(OC)ccc4n(Cc4cccc(C)c4)cc2-3)cc1 | 46.6%
77 | COc1ccc(N2CCN(C(=O)c3ccc(S(=O)(=O)N4CCCC4)cc3)CC2)nn1 | 1.5%
78 | CCCCC(CC)Cn1c(Br)nc2c1c(=O)[nH]c(=O)n2C (stereo not drawn) | 20.9%
79 | O=C1CC(c2nc3ccccc3n2Cc2c(F)cccc2Cl)CN1Cc1ccccc1 (stereo not drawn) | 5.4%
80 | Cc1ccccc1NC(=O)C(=O)Nc1cc2c3c(c1)CCC(=O)N3CCC2 | 22.2%
81 | C=C(C)Cn1c(C2CC(=O)N(Cc3ccccc3)C2)nc2ccccc21 (stereo not drawn) | 4.2%
82 | O=C1CC(NS(=O)(=O)c2cccs2)CN1c1ccc2c(c1)OCCO2 (stereo not drawn) | 1.0%
83 | O=C(Nc1nnc(-c2ccc(Cl)cc2Cl)s1)C1CCCCC1 | 2.2%
84 | CCOc1cc(C(=O)Oc2coc(CSc3ncccn3)cc2=O)cc(OCC)c1OCC | 1.3%
85 | COc1ccc(-c2nnc(NC(=O)C(C)Sc3ccccc3)s2)c(OC)c1 (stereo not drawn) | -0.3%
86 | O=C(Nc1ccc2ncsc2c1)c1cc2ccccc2oc1=O | 0.8%
87 | COc1ccccc1OCCCC(=O)Nc1nnc(C(C)C)s1 | -10.5%
88 | O=C(COC(=O)c1ccc2c(c1)C(=O)N(c1ccccc1Cl)C2=O)Nc1ccc(F)cc1 | 14.1%
89 | Cc1cc(OC(=O)c2ccc(Cl)cc2)c([N+](=O)[O-])c(=O)[nH]1 | 2.3%
90 | CC(=O)N1CCc2c(sc(NC(=O)c3nc4ccccc4s3)c2C#N)C1 | 5.0%
91 | CC(C)CNC(=O)C(=O)c1c[nH]c2ccccc12 | 7.9%
92 | O=S(=O)(Nc1cc(Sc2ncn[nH]2)c(O)c2ccccc12)c1cccs1 | 18.3%
93 | O=S(=O)(c1ccc(Cl)cc1)c1nnn2c1nc(N1CCOCC1)c1ccccc12 | 3.3%
94 | CC1CCN(c2ncnc(N)c2[N+](=O)[O-])CC1 | 4.0%
95 | N#Cc1c(NC(=O)c2cc3cc([N+](=O)[O-])ccc3s2)sc2c1CCN(Cc1ccccc1)C2 | -1.4%
96 | CCCSc1nc2c(c(=O)[nH]1)C(c1cccs1)C1=C(CCCC1=O)N2 (stereo not drawn) | 6.8%
97 | COc1ccc(N2CCN(c3nc4c(c(=O)n(C)c(=O)n4C)n3CCSc3nccc(C)n3)CC2)cc1 | 1.1%
98 | COc1ccc(-n2c(=O)[nH]cc(C(=O)Nc3ccc4c(c3)OCCO4)c2=O)cc1OC | -0.8%
99 | CCCCn1c(SCCC)nc2c1c(=O)[nH]c(=O)n2C | -1.8%
100 | O=C(Cn1ccn(-c2cccc3ccccc23)c(=O)c1=O)Nc1cccc(Cl)c1 | -14.5%
101 | Cc1nnc(NC(=O)c2cccc(C(F)(F)F)c2)s1 | 4.1%
102 | NCCSc1ncc(-c2ccc(F)cc2)[nH]1 | -10.9%
103 | CN(Cc1ccccc1)S(=O)(=O)c1ccc(C(=O)Nc2nc3ccc(F)cc3s2)cc1 | -2.8%
104 | Cc1cc(=O)[nH]c(N2CCN(C(c3ccccc3)c3ccccc3)CC2)n1 | 3.1%
105 | COc1ccc(C(=O)Nc2nnc(-c3ccccc3Cl)s2)cc1OC | -3.5%
106 | O=C(Nc1ncc(S(=O)(=O)c2ccc([N+](=O)[O-])cc2)s1)c1cccc(F)c1 | -2.5%
107 | O=[N+]([O-])c1ccc(S(=O)(=O)N2CCN=C2SCc2cccc([N+](=O)[O-])c2)cc1 | -19.3%
108 | CCOc1ccc(-n2ccnc(NCc3ccccc3)c2=O)cc1 | 66.4%
109 | COC(=O)c1ccc(C(=O)OC)c(NC(=O)c2ocnc2C)c1 | 11.3%
110 | O=C(Nc1nc(-c2ccc3c(c2)OCO3)cs1)c1ccccc1Cl | 12.4%
111 | CSc1ccccc1NC(=O)c1cnc2n(c1=O)CCS2 | 1.3%
112 | CC(=O)N1CCc2c(sc(NC(=O)c3cccs3)c2C#N)C1 | -13.1%
113 | CCCCn1c(SCC(N)=O)nc2c1c(=O)[nH]c(=O)n2C | 9.7%
114 | CCOC(=O)c1nn(-c2ccc(F)cc2)c(=O)c2c(NC(=O)c3ccccc3F)scc12 | -12.0%
115 | O=C1NC(=O)c2cc(NC(=O)C3COc4ccccc4O3)ccc21 (stereo not drawn) | -9.3%
116 | O=C(Nc1ccc(Cl)c(C(F)(F)F)c1)c1ccc(-c2nc3ccccc3s2)s1 | 5.6%
117 | O=C(Nc1c(C(=O)Nc2ccc(OC(F)(F)F)cc2)oc2ccccc12)c1cc(Cl)ccc1[N+](=O)[O-] | 4.8%
118 | Cc1ccc(-c2nnc(NC(=O)Cc3cccc4ccccc34)s2)cc1 | 11.8%
